# VACV mCherry inh – vaccinia inhibition (mCherry reporter) | 310,000 compounds, 0.63% hits | Vaccinia virus mCherry reporter infection, fluorescence; about a quarter of the inactives have no number | Potency, µM (titrated, usually from 36.5 µM), inactives show at the top dose activity change, negative = inhibition, hits mostly inhibitors; active = well fitted inhibition curve with a large enough effect; inconclusive = small, poorly fitted or top-dose-only effect; inactive = no such curve, though single readings can be large or run the other way; tested in A549 cells; further: nearly all actives have a fitted effect of over 35% in size; inactives centre near -10
# Vaccinia Venus – inhibitors of vaccinia virus (Venus reporter); Vaccinia virus Venus reporter expression, fluorescence; Potency, µM (top dose mostly 36.5 µM), inactives show top-dose activity change, negative = inhibition, most hits filed as inhibitors; 330,000 compounds, 0.46% hits; AID 720580; active means well fitted inhibition curve with a large enough effect; inconclusive means small, poorly fitted or top-dose-only effect; inactive means no such curve, though single readings can be large or run the other way; tested in A549 cells; further: nearly all actives have a fitted effect of over 30% in size; inactives centre near -10
# The depositor's hits bear a star; i = inactive; ? = inconclusive; / = not tested or not shown; & = joins results of further samples; [ ] = dose if it differs, or a comment. On the % scale 0 is the no-effect control and ±100 the full control effect; potency means the concentration at half of the fitted maximal effect.
# Sample of the layout, 6 compounds:
SMILES,VACV mCherry inh,Vaccinia Venus
Cc1ccc(OCCCn2c(-c3ccc(Cl)cc3)nc3ccccc3c2=O)c(C)c1,-6.7%,-0.4%
COc1ccc(N(CC(=O)NC2CCCC2)C(=O)CCC(=O)Nc2cc(C)on2)c(OC)c1,-0.1%,-17.4%
COC(=O)c1cc(OC)c(OC)cc1NC(=O)CCC1CCCC1,-19.5%,-4.3%
CCn1c(=O)[nH]c2ccccc2c1=O,i,?
CCCn1c(SCC(=O)Nc2cc(Cl)ccc2Cl)n[nH]c1=O,i,19.2%
COc1cc([N+](=O)[O-])c(N2CCOCC2)c([N+](=O)[O-])c1OC,-19.0%,-26.8%

# Results (from the top)
SMILES,VACV mCherry inh,Vaccinia Venus
Cc1ccc(OCCCn2c(-c3ccc(Cl)cc3)nc3ccccc3c2=O)c(C)c1,-6.7%,-0.4%
COc1ccc(N(CC(=O)NC2CCCC2)C(=O)CCC(=O)Nc2cc(C)on2)c(OC)c1,-0.1%,-17.4%
COC(=O)c1cc(OC)c(OC)cc1NC(=O)CCC1CCCC1,-19.5%,-4.3%
CCn1c(=O)[nH]c2ccccc2c1=O,i,?
CCCn1c(SCC(=O)Nc2cc(Cl)ccc2Cl)n[nH]c1=O,i,19.2%
COc1cc([N+](=O)[O-])c(N2CCOCC2)c([N+](=O)[O-])c1OC,-19.0%,-26.8%
Cc1nc(N2N=C(c3ccc(Cl)cc3)CC2c2ccco2)sc1C(=O)N(C)C (centres undefined),?,-19.8%
CC1CCc2nn(CC(=O)Nc3ccc(F)cc3F)cc2C1 (centres undefined),-4.1%,-5.6%
NS(=O)(=O)c1cccc(NC(=O)CC2(CC(=O)O)CCCC2)c1,-27.8%,-0.8%
Cc1cc(Br)ccc1NC(=O)COC(=O)c1ccccc1OCC(N)=O,-5.1%,-6.2%
COC(=O)c1nc(-c2ccc(C)cc2)oc1N(C)C,i,-16.9%
Cc1ccc(S(=O)(=O)N2CCOCC2)cc1NC(=O)COC(=O)Cc1cccs1,i,-13.2%
O=C(NCc1ccco1)c1cnn2c(C(F)(F)F)cc(-c3cccs3)nc12,/,-38.4%
CCCNC(=O)C1(CC2CC(c3ccccc3)=NO2)CCNCC1 (centres undefined),-9.6%,-0.4%
CCOc1ccccc1C(=O)N1CCN=C1SC,i,-12.8%
CC(C)n1nc(C(=O)NCCCN2CCCC2=O)c2ccccc2c1=O,-13.0%,-1.8%
CCn1nnc(-c2ccccc2NS(=O)(=O)c2ccc(C(=O)OC)cc2)n1,-10.4%,-9.0%
CCOCCCNC(=O)CN1C(=O)COc2ccc(S(=O)(=O)N3CC(C)CC(C)C3)cc21 (centres undefined),-9.7%,-23.3%
CCCCN1C(=S)NC[C@@H]1Cc1ccc(O)cc1,-13.5%,-3.9%
Cc1c(-c2cc(C(=O)O)c3ccccc3n2)cnn1C,-20.0%,3.6%
Nc1[nH]n2c(=O)cc(-c3ccccc3)nc2c1N=Nc1ccc(S(N)(=O)=O)cc1,-0.7%,-5.8%
CC1(C)OCC(C2CC(c3ccccc3)NS(=O)(=O)O2)O1 (centres undefined),-3.1%,-11.1%
CCOc1ccc(CCNC(=O)c2cc3c(=O)n(C)c4ccccc4c3n2C)cc1,-0.2%,-7.6%
CCC(Cc1ccccc1)NC(=O)CN1C(=O)COc2ccc(S(=O)(=O)N3CCCCCC3)cc21 (centres undefined),-16.4%,-18.3%
CN(C)CCOCCOc1ccc(Cl)cc1Br,-1.8%,2.4%
CCCOc1ccc(CNC(=S)NCc2ccc(OC(C)C)cc2)cc1,-14.4%,-15.8%
Cc1ccccc1NC(=O)N1CCCN(c2ccc(C#N)cn2)CC1,-10.2%,-2.7%
CCCOc1ccc(N2CC(C(=O)NCCc3ccc(OC)c(OC)c3)CC2=O)cc1 (centres undefined),i,-10.9%
CCOc1ccc(N2C(=O)CC(SC(=NC)Nc3cccc(F)c3)C2=O)cc1 (centres undefined),/,-11.1%
COCCn1c(SCC(=O)Nc2cccc(NC(C)=O)c2)nc2c([nH]c3ccccc32)c1=O,-11.5%,-5.6%
NS(=O)(=O)c1ccc(N/N=C/c2cn(-c3ccccc3)nc2-c2cccs2)c([N+](=O)[O-])c1,-12.7%,-18.1%
Cc1c(C(=O)Nc2c(F)cccc2F)sc2ncn(CC(=O)N3CCCCC3)c(=O)c12,i,-26.1%
CC1CCCCC12C(=O)NC(=O)NC2=O (centres undefined),i,-15.1%
CC(=O)C1=C(c2ccccc2)NC(=O)NC1c1ccc2c(c1)OCO2 (centres undefined),-15.3%,-14.2%
O=C(Nc1ccc(F)cc1)c1ccc(Cn2cnnn2)cc1,-13.2%,-7.5%
Cc1ccc2nc(-c3ccccc3)c(Cc3ccccc3C(F)(F)F)n2c1,7.5%,4.3%
Cc1ccccc1NC(=O)CCN1C(=O)c2ccccc2C1=O,-12.1%,-18.7%
COc1ccc(N2CCN(C(=O)C(=O)c3cc(OC)c(OC)c(OC)c3)CC2)cc1,i,-15.0%
O=c1cc(-c2ccccc2)c2ccccc2[nH]1,-2.3%,-25.0%
C#CCNC(=O)C1=C[C@@H](C2CCCCC2)C[C@@H](OCCCCO)O1,i,-9.9%
COc1ccc(-n2nc(C(=O)NCCc3ccc(OC)c(OC)c3)c3c4ccccc4n(C)c3c2=O)cc1,-11.5%[7.34 µM],-0.7%[7.34 µM]
O=Cc1ccc(OCC(=O)NCC2CCCO2)cc1 (centres undefined),-8.5%,-3.4%
CCN(CC)S(=O)(=O)c1ccc(C(=O)Nc2ccc3c(c2)OCO3)cc1,-12.6%,-15.1%
COc1ccc(NC(=O)CCN2CCOCC2)c(OC)c1,i,-2.4%
Cc1ccc(C)c(OCCC(=O)OCC(=O)c2ccc3c(c2)NC(=O)CO3)c1,-5.0%,-3.7%
COc1ccc(-c2noc(CNC(=O)c3ccc4c(c3)OCO4)n2)cc1,-6.2%,8.9%
Cc1cc(Cl)ccc1OCCCC(=O)OCC(=O)Nc1cccc(S(N)(=O)=O)c1,i,-15.1%
Cc1cc(C(=O)NC2CCCc3c2cnn3-c2ccc(C(C)(C)C)cc2)nn1C (centres undefined),-29.3%,-28.6%
CN(C)c1ccc(/C=[N+](\[O-])C2N(c3ccccc3)C(=S)SC2(C)C)cc1 (centres undefined),-11.2%,-16.4%
Cc1ccc(C(=O)NC2CCS(=O)(=O)C2)cc1S(=O)(=O)N1CCCCCC1 (centres undefined),-21.7%,-24.8%
CCC[C@@H]1C[C@@H](C(=O)N[C@H]([C@@H](C)O)[C@H]2O[C@H](SC)[C@H](O)[C@@H](O)C2O)N(C)C1 (some centres undefined),-23.8%,-16.7%
O=C(Nc1c(Cl)cccc1Cl)Oc1cccc2cccnc12,?,?
CC(C)n1cc(/C=C2/NC(=O)NC2=O)c2ccccc21,?,-19.4%
Cc1cc(C)c(C2=CC(=O)C[C@H](c3ccc4c(c3)OCO4)C2)c(C)c1,?,-13.4%
O=C(Cc1ccc(-c2ccccc2)cc1)OCC(=O)N1CCCC1=O,i,-17.0%
O=C(O)CCCC(=O)N1CCN(c2nc(-c3ccccc3)c3ccccc3n2)CC1,-4.1%,-17.7%
C=CCn1c(COc2ccc(Cl)cc2)nnc1SCC(=O)Nc1ccc(S(N)(=O)=O)cc1,-13.9%,-4.2%
O=C(NCc1ccc(F)cc1)c1cc(C2CCCCN2C(=O)c2ccccc2)on1 (centres undefined),i,-7.6%
O=c1cc(CN2CCN(Cc3ccccc3)CC2)c2ccc(O)c(O)c2o1,-16.7%,-26.6%
COc1cccc2cc(C(=O)Nc3ccc(F)c(F)c3)c(=O)oc12,5.0%,-2.0%

# Further structures:
SMILES,VACV mCherry inh,Vaccinia Venus
CCCCNC(=O)c1onc(CSc2ccc(F)cc2)c1C(=O)NCCCC,-28.9%,-10.5%
c1cnc2ccc(C(c3nnnn3C3CCCCC3)N3CCN4CCCC4C3)cc2c1 (centres undefined),-20.0%,-4.7%
COc1ccc2[nH]c3c(c2c1)CCN1C(=O)N([C@@H](C)C(=O)NC2CCN(Cc4ccccc4)CC2)C(=O)[C@]31C,-23.8%,-20.3%
O=C(/C=C/c1ccco1)NCC1CCCO1 (centres undefined),i,-7.3%
O=c1[nH]c2cc3c(cc2cc1C(c1nnnn1Cc1ccccc1)N1CCN2CCCC2C1)OCCO3 (centres undefined),i,-14.9%
O=C(NC1CCCc2ccccc21)C1CCN(S(=O)(=O)c2ccccc2)CC1 (centres undefined),i,-9.5%
Cc1ccc(C(=O)N/C(=C\c2cn(C)c3ccccc23)C(=O)NCCCN2CCOCC2)cc1,?,-19.8%
N#Cc1cc2c(nc1SCC(=O)Nc1ccc(Cl)c(C(F)(F)F)c1)C1CCN2CC1,-29.4%[7.34 µM],?
CC(C)CC(=O)Nc1ccc(N2CCN(S(C)(=O)=O)CC2)cc1,i,-0.1%
CCOC(=O)C1(Cc2ccccc2C)CCCN(Cc2ccc(NC(C)=O)cc2)C1 (centres undefined),-14.9%,-17.5%
CC(=O)c1ccc(NC(=O)CCc2c(C)nc3c(c2C)c(=O)n(C)c(=O)n3C)cc1,4.4%,0.0%
CCCCNc1c(-c2ccc(SC3CCCCC3)c(OC)c2)nc2ccc(C)cn12,-29.9%&-8.2%,?
Cn1cc(S(=O)(=O)Nc2ccc(F)c(Cl)c2)c(=O)n(C)c1=O,i,-2.5%
C=CCNC(=S)N/N=C/c1ccc(-c2cc(Cl)ccc2Cl)o1,/,-21.9%
NC(=O)c1nn(Cc2ccccc2)c(=O)c2ccccc12,30.9%[activator],-14.9%
CN1CC(=O)N(CC(=O)Nc2ccc(SC(F)F)cc2)C1=O,-9.4%,-1.3%
Cc1ccc2c(C(=O)CN3CCN(c4ccccc4)CC3)c(C)[nH]c2c1,/,0.3%
Cc1cccc(OCC(=O)NNC(=O)c2ccc3nc[nH]c3c2)c1,i,-10.8%
COc1ccc(C(=O)Nc2cc3c(cc2C(=O)O)OCCCO3)c(OC)c1,1.4%,7.3%
CC1CCN(S(=O)(=O)c2cccc(C(=O)NCC3CCCO3)c2)CC1 (centres undefined),-15.5%,-14.1%
CCCc1ccc(S(=O)(=O)N2CCN(C(C)C(=O)NCc3ccccc3)CC2)cc1 (centres undefined),?,-27.3%
COc1cc(NC(=O)C(CC(C)C)NS(=O)(=O)c2ccc3c(c2)CCN3C(C)=O)cc(OC)c1 (centres undefined),-5.5%,-8.6%
Cc1cccc(CS(=O)(=O)Cc2ccc(C(=O)O)o2)c1,/,2.0%
CS(=O)(=O)CCC(C(=O)n1nnc2ccccc21)N1C(=O)c2ccccc2C1=O (centres undefined),-3.7%,-14.2%
CNCC(O)c1ccc(O)c(O)c1 (centres undefined),-4.4%&-13.6%,-20.9%&-3.2%
O=C(CSc1nc2ccsc2c(=O)n1CC1CCC(C(=O)O)CC1)c1ccc(F)cc1 (centres undefined),i,-5.7%
CCOC(=O)c1ccc(Cl)c(S(=O)(=O)N2CCCC2)c1,-4.6%,-10.0%
C=C1Cn2c(nnc2-c2ccc(Cl)cc2)S1,-0.1%,3.7%
Cc1ccc(NC(=O)C2(C)CCN2C(=O)c2ccccc2CCc2ccccc2)cc1C (centres undefined),10.9%,-3.2%
COc1ccc(CCNCC2C(Oc3ccc(Cl)cc3)C(=O)N2c2ccccc2C)cc1OC (centres undefined),i,-22.9%
Cc1noc(C)c1S(=O)(=O)Nc1ccc(C(=O)N2CCN(c3ccc(Cl)cc3)CC2)cc1,-29.3%,-18.6%
Cc1ccc(C)c(NC(=O)c2ccccc2Sc2ccc([N+](=O)[O-])cc2Cl)c1,-21.7%,-13.4%
COc1ccc(-c2cc(C(=O)Nc3ccc(OC)c(OC)c3)[nH]n2)c(C)c1,-8.2%,-7.6%
Cc1cccc(C)c1NC(=S)/N=C/N(C)C,2.9%,-0.2%
COC(=O)c1ccccc1S(=O)c1snnc1C (centres undefined),2.9%,12.1%
COc1cccc(C(C)=C2SC(=S)NC2=O)c1,-18.4%,11.6%
CCn1c(SCC(=O)N2CCCCC2C)nc2c1c(=O)n(C)c(=O)n2C (centres undefined),-4.3%,-13.2%
Cc1nc(CNC(=O)CC2C(=O)NCCN2Cc2ccc(F)cc2)cs1 (centres undefined),i,-4.3%
O=C(Cc1ccccc1)NO,-16.5%&-19.9%,-13.6%&-9.6%
O=c1nc(SCc2ccccc2Cl)nc(-c2ccc(Cl)cc2)[nH]1,?,-9.3%
COc1cc(NC(=S)N2CCN(C(c3ccccc3)c3ccccc3)CC2)cc(OC)c1,-10.7%,-19.6%
CCC(=O)Nc1ccc(Nc2nc(Cl)nc(Nc3ccc(NC(=O)CC)cc3)n2)cc1,i,-8.3%
NC(=O)COc1ccc(/C=C2\C(=O)ON=C2c2ccccc2)cc1,-10.0%,-7.0%
O=C(O)/C=C/C(=O)N1CCN(c2ccc(F)cc2)CC1,-1.2%,3.8%
COc1ccc(C(=O)NCCCc2nc3ccccc3n2Cc2cc(C)ccc2C)cc1OC,-13.3%,?
O=C(CN1CCN(S(=O)(=O)c2ccc(F)cc2)CC1)Nc1ccc2c(c1)OCCO2,/,-14.0%
C[C@H]1CN([C@@H](C)CO)C(=O)c2cc(-c3cccc(F)c3)cnc2O[C@@H]1CN(C)S(C)(=O)=O,-4.7%,-5.0%
COc1ccc(NS(=O)(=O)c2ccc(O)c(C(=O)OCC(=O)NC(C)C3CC4CCC3C4)c2)cc1 (centres undefined),i,-21.0%
CCc1nc2cc(C(=O)N(C)CC3CCCN(C)C3)cc(NC(=O)c3ccccc3OC)c2n1C (centres undefined),-10.4%,-8.4%
COc1ccc2c(=O)c(C(=O)NCc3ccccc3)c[nH]c2c1,-11.3%,-3.5%

# Assay outcomes as filed in PubChem BioAssay.
